LT uptake inh: anthrax lethal toxin internalization inhibition | Cells, anthrax lethal toxin internalization, FRET ratio (460/530) | Potency, µM (titrated, usually from 40 µM), without a hit: at the top dose activity change, negative = inhibition, usual class: inhibitors | actives 0.67% (n = 70,000) | AID 912; active = well fitted falling ratio curve with the 530 nm signal flat; inconclusive = other ratio curves, or a change in one channel alone; inactive = flat curves in the ratio and both channels; the % refers to the ratio; also: % is scaled to controls: 0 for no effect and ±100 for the full control effect; nearly all actives have a fitted effect of over 50% in size; tested in ME-180 cells; beta-lactamase reporter
Prx2 Sm inh: Schistosoma mansoni Prx2 inhibition; S. mansoni Prx2 activity coupled to TGR/GSH (TGR is thioredoxin glutathione reductase), NADPH fluorescence loss, qHTS; some inactives read as strong as hits; actives 0.07% (n = 65,000); Potency, µM; active means full or partial inhibition curve with a strong effect at the top dose; inconclusive means weaker partial or single-point curve; inactive means no accepted curve; also: series up to 57 µM; many of its hits are not listed in these tables
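Purified S. mansoni TGR and Prx2 in pH 7.4 phosphate buffer with EDTA and Tween-20 were preincubated with compounds for 15 min. Further NADPH/GSH was added, then a 2.5 mM H2O2 aliquot initiated turnover, followed kinetically by NADPH fluorescence.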
Active calls of the source: *; ? = inconclusive; · = not tested or not shown; & = joins results of further samples; [ ] = another dose, or the depositor's remark. Potency is read from the fitted curve at half-maximal effect. Some of the compounds tested; count on the stated rates, not on these rows.

SMILES | LT uptake inh | Prx2 Sm inh
O=S(=O)(O)c1ccc(-c2nnc(-c3ccccn3)nc2-c2ccc(S(=O)(=O)O)o2)o1 | -10%[8 µM] | >57
CC(=NCCc1ccccc1)C1=C(O)COC1=O | 8% | ·
COc1ncc2nc(CCc3ccccc3)c(=O)n(C3CC3)c2n1 | -5% | >57
COc1ccc(C(O)C(CC(=O)NCCCOC(C)C)C(=O)NCCCOC(C)C)cc1OC (centres undefined) | 12% | >57
COCCN1C(=O)c2oc3ccccc3c(=O)c2C1c1cccc(O)c1 (centres undefined) | 22% | >57
CCN1CCC2(CC1)C(C#N)=C(N)Oc1c2sc2nc(C)cc(C)c12 | ? | >57
CCCc1[nH]nc2c1C(/C(C)=C/c1ccccc1)C(C#N)=C(N)O2 (centres undefined) | -19% | >57
CC(=O)N1C(=O)C(=C2C=C(C)OC(C)=C2)c2ccccc21 | 3% | >57
CCCOc1ccc(C2C(C(=O)c3ccc(C)o3)=C(O)C(=O)N2CCN2CCOCC2)cc1OC (centres undefined) | -15% | >57
Cc1cc(N2CCOCC2)cc(C)[n+]1[O-] | -5% | >57
CCCCn1c2c(c(=O)n(C)c1=O)C(c1ccc(OC)cc1)N1CCCCCC1=N2 (centres undefined) | -1% | >57
CCN(CCCNC(=O)c1ccc(N2CCCC2=O)cc1)c1cccc(C)c1 | 0% | ·
O=C(OCCN1CCOCC1)C(c1ccccc1)c1ccccc1 | -3% | >57
CC(=C(CCOP(=O)(O)O)SC(=O)c1ccccc1)N(C=O)Cc1cnc(C)nc1N | -4%[3.58 µM] | >57
O=C(CN1CCN(C(=O)c2c(F)cccc2F)CC1)Nc1ccccc1F | 5% | >57
Cc1ccc(-n2ncc3c(NCCCn4ccnc4)ncnc32)c(C)c1 | 8% | >57
COc1ccc(C(=O)N2CCN(c3ccc(C)c(C)c3)CC2)cc1OC | -6% | >57
CCC(C)NC(=O)C1=C(C)C(=O)OC12CCC(C)CC2 (centres undefined) | 11% | >57
CC12CCC(C(=O)n3c1nc1ccccc13)C2(C)C (centres undefined) | -1% | >57
COc1ccc(CNc2nc3nc(C)c(Cl)c(C)n3n2)cc1OC | -5% | ·
COc1ccc(-n2c(Cc3cccn3C)nnc2SCC(=O)Nc2ccc(C(C)=O)cc2)cc1 | 0% | >57
Cc1ccc(O)c(N=Nc2ccccc2)n1 | 5%&-9% | >57&>57
Cc1nn(-c2nnc(C)c(=O)[nH]2)c(C)c1SCC(=O)Nc1ccc(C(C)C)cc1 | 4% | >57
O=C(CN1C(=O)c2ccccc2S1(=O)=O)NCCSc1ccccc1 | 1% | >57
Cc1ccc(OC(=O)CCC(=O)OCCCC(F)(F)C(F)(F)F)cc1 | ? | ·
(listing goes on)
SMILES | LT uptake inh | Prx2 Sm inh
CCOc1ccc(OCC)c(NC(=O)CSc2nc3c(c(=O)n(C)c(=O)n3C)n2CC)c1 | 6% | >57
O=c1c2[nH]c3ccccc3c2ncn1C1CCCCC1 | 17% | >57
CC(=O)C1=C(O)C(=O)N(Cc2ccccc2)C1c1cccs1 (centres undefined) | 0% | >57
Cc1cccc(C)c1NC(=O)N1CCC(N2CCCCC2)CC1 | -15% | >57
COc1cccc(NC(C)C(=O)N2CC(C)OC(C)C2)c1 (centres undefined) | 7% | >57
O=C(NCc1ccccc1)c1ccc(/C=N/O)nc1 | -6% | ·
CCOC(=O)c1c(NC(=O)c2noc3c2CCCC3)sc2c1CCCC2 | -7% | >57
COc1ccc(CCNC(=O)CCS(=O)(=O)c2cccc3nsnc23)cc1OC | -11% | >57
COc1ccc(N2CCN(c3nc4c(c(=O)[nH]c(=O)n4C)n3Cc3cccc(C)c3)CC2)cc1 | -14% | >57
Cc1ccc2c(c1)N(CCC(=O)NCC1CCCO1)C(=O)CO2 (centres undefined) | -6% | >57
CN(C1CCCCC1)S(=O)(=O)c1ccc(S(=O)(=O)N2CCN(CCC#N)CC2)cc1 | -17% | >57
O=S(=O)(Cc1ccccc1)N1CCc2ccccc21 | -4% | >57
CCC(=O)OC1(C#CCOc2ccc(OC)cc2)CCN(C)CC1 | ? | >57
c1ccc(Cc2nn3c(-c4ccncc4)nnc3s2)cc1 | 23% | >57
CC(=O)N1CCc2cc(Br)cc(S(=O)(=O)NCCCN3CCCC(C)C3)c21 (centres undefined) | -2% | >57
CC(C)Nc1nc(-c2ccccc2)nc(-n2ccnc2)n1 | 4% | >57
O=C(c1ccc(S(=O)(=O)N2CCOCC2)cc1)N(Cc1ccco1)Cc1cccs1 | 10% | >57
COCCNC(=O)CCn1nc(-c2ccc(Cl)cc2)ccc1=O | 14% | >57
CCC(=O)[C@@H](c1ccccc1)c1ccccn1 | 3%[8 µM] | >57
O=C(NCC1CCCO1)C1CCN(c2ccc(S(=O)(=O)N3CCCC3)cc2)CC1 (centres undefined) | -21% | >57
CO[C@@]12C[C@@H](COC(=O)c3cncc(Br)c3)CN(C)[C@H]1Cc1cn(C)c3cccc2c13 | ? | >57&>57&>57
CCn1nc(NC(=O)c2ccncc2)c2cc3ccccc3nc21 | 3% | >57
CN1CC[C@]2(C)c3cc(O)ccc3N(C)[C@@H]12 | ? | >57&>57&>57
COc1cccc(-c2ccc3ncnc(NCc4cccnc4)c3c2)c1 | -14% | >57
CN(C)c1cccc(N=C2C=C(N3CCOCC3)CC(C)(C)C2)c1 | 0% | >57

Sorted by molecular weight (high to low): part of the list above
SMILES | LT uptake inh | Prx2 Sm inh
CC(=O)C1=C(O)C(=O)N(Cc2ccccc2)C1c1cccs1 (centres undefined) | 0% | >57
O=S(=O)(Cc1ccccc1)N1CCc2ccccc21 | -4% | >57
O=c1c2[nH]c3ccccc3c2ncn1C1CCCCC1 | 17% | >57

(cont.)
SMILES | LT uptake inh | Prx2 Sm inh
CC1(C)CC(=O)c2c(-c3cccs3)n[nH]c2C1 | 0% | >57
COc1ccc(C(=O)CSc2cc(C)nc3nc(C)nn23)cc1OC | ? | >57
CCOC(=O)N1CCN(C(=O)Nc2ccc3nc(C)c(C)nc3c2)CC1 | 16% | ·
CCc1ccc2nc3c(c(C(=O)O)c2c1)CCC3 | -4% | >57
CN/C(=C\[N+](=O)[O-])NCCSCc1csc(CN(C)C)n1 | 4%[3.58 µM] | >57
Cc1nc2ccccc2n1S(=O)(=O)c1ccc(S(=O)(=O)N2CCCCCC2)cc1 | 5% | >57
NCCCc1ccc2oc3ccccc3c2c1 | -10%[8 µM] | >57
Oc1ccccc1Nc1ncnc2c1oc1ccccc12 | -14% | >57
COCCCN(C(=O)c1cccnc1SC)c1c(N)n(Cc2ccccc2)c(=O)[nH]c1=O | -8% | >57
CCCCN(CC)CCNC(=O)C1c2cc(OC)c(OC)cc2C(=O)N2CCc3ccccc3C12 (centres undefined) | -1% | >57
Cc1cccc(N(CC(N)=O)C2SC(=O)N(c3ccccc3)C2=O)c1 (centres undefined) | -9% | >57
C[C@@](N)(Cc1c[nH]c2ccccc12)C(=O)O | 0%[8 µM] | >57
COc1ccc2c(c1)c(CC(=O)OCC(=O)O)c(C)n2C(=O)c1ccc(Cl)cc1 | 8%[3.58 µM] | >57
CC[C@]1(C)CC(=O)NC1=O | 10%[3.58 µM] | >57&>57
CN(c1cccc(NC(=O)COc2ccccc2)c1)S(C)(=O)=O | 0% | >57
CC(C)CN(C(=O)COC(=O)c1cc2c(s1)CCC2)C1CCS(=O)(=O)C1 (centres undefined) | 11% | >57
COC(=O)CN1C(=O)C2(OCCCO2)c2cc(Br)ccc21 | · | >57
COc1ccc(CNC(=O)NCc2ccc(OC)c(OC)c2)cc1OC | 13% | >57
Cc1ccc(NC(=O)CSCC(=O)Nc2ncc3c(n2)CC(c2ccco2)CC3=O)cc1 (centres undefined) | 2% | >57
CCOC(=O)N1CCN(c2ncnc3c2oc2nc(C(C)C)c4c(c23)CCC4)CC1 | · | >57
O=C(O)CCCSc1ccccc1 | -3%[8 µM] | >57
CCOc1ccc(C2C=C(c3ccc(C)cc3)Nc3nnnn32)cc1 (centres undefined) | ? | >57
NC(=O)NCCS[C@H]1CCCC[C@@H]1O | -3%[8 µM] | >57
NC(=O)c1ccsc1NC(=O)COC(=O)Cc1ccsc1 | -11% | >57
c1ccc(Nc2ccccc2Nc2ccccn2)nc1 | 14% | >57

5 of the compounds above, tab-delimited:
Structure	LT uptake inh	Prx2 Sm inh
O=C(CN1C(=O)c2ccccc2S1(=O)=O)NCCSc1ccccc1	1%	>57
Cc1ccc(OC(=O)CCC(=O)OCCCC(F)(F)C(F)(F)F)cc1	?	·
CCOc1ccc(OCC)c(NC(=O)CSc2nc3c(c(=O)n(C)c(=O)n3C)n2CC)c1	6%	>57
O=c1c2[nH]c3ccccc3c2ncn1C1CCCCC1	17%	>57
CC(=O)C1=C(O)C(=O)N(Cc2ccccc2)C1c1cccs1 (centres undefined)	0%	>57

Molecules listed so far that contain a cyano group, in the order listed:
SMILES | LT uptake inh | Prx2 Sm inh
CCN1CCC2(CC1)C(C#N)=C(N)Oc1c2sc2nc(C)cc(C)c12 | ? | >57
CCCc1[nH]nc2c1C(/C(C)=C/c1ccccc1)C(C#N)=C(N)O2 (centres undefined) | -19% | >57
CN(C1CCCCC1)S(=O)(=O)c1ccc(S(=O)(=O)N2CCN(CCC#N)CC2)cc1 | -17% | >57

At a glance, some entries already given.
SMILES | LT uptake inh | Prx2 Sm inh
NC(=O)c1ccsc1NC(=O)COC(=O)Cc1ccsc1 | -11% | >57
c1ccc(Nc2ccccc2Nc2ccccn2)nc1 | 14% | >57

Other compounds.
SMILES | LT uptake inh | Prx2 Sm inh
Cc1ccc(N2CCN(CCc3nc4cc(NS(C)(=O)=O)ccc4n3C)CC2)cc1 | ? | >57
Cn1c(=O)c2c(nc(N3CCCCC3)n2CCCNC2=NCCCC2)n(C)c1=O | -23% | >57
COCCn1c(=O)c(C)nc2cnc(OCc3ccccc3)nc21 | 4% | >57
CN1CCN(c2ncc3nc(-c4ccc(F)cc4)c(=O)n(Cc4cccs4)c3n2)CC1 | ? | >11
Cc1nn(Cc2ccccc2)c(C)c1C(=O)OCC(=O)Nc1ccccc1SCC#N | -10% | >57
COc1ccc(CSc2nc(C)cc(=O)[nH]2)cc1Br | ? | >57
c1n[nH]c(NC2=NCCC2)n1 | -2% | >57
NC(=O)C1CCN(C(c2ccccc2Cl)c2nnnn2CC2CCCO2)CC1 (centres undefined) | 2% | >57
COc1cccc(C2=NOC(C(=O)N3CCC4(CC3)OCCO4)C2)c1 (centres undefined) | -10% | >57
COC(=O)c1cc(NC(=O)CC2NCCNC2=O)cc(C(=O)OC)c1 (centres undefined) | -17% | >57
COc1cc(S(=O)(=O)NCc2ccc3c(c2)OCO3)ccc1Cl | ? | >57
CC(C)(C)n1ncc2c(=O)n(CC(=O)Nc3ccc4c(c3)OCO4)cnc21 | 2% | >57
CC(=O)Oc1c(S(=O)(=O)c2ccccc2)c(C)nn1C(C)(C)C | · | >57
CCNC(=O)c1c(C)nc2ccccn12 | 0% | ·
Cc1ccc(-n2ncc(C#N)c2/N=C/N2CCCCCC2)cc1 | ? | >57
Cc1noc(C)c1COc1ccc(C(=O)OC(C)C(=O)Nc2ccc(N3CCOCC3)cc2)cc1 (centres undefined) | 6% | >57
COc1cc(-c2nc(-c3cccc(C(F)(F)F)c3)no2)cc(OC)c1OC | 1% | >57
N#Cc1ccccc1NC(=O)c1ccccc1OCC(=O)NCc1ccco1 | 4% | >57
CCOC(=O)c1c(NC(=O)c2ccc(Br)o2)sc2c1CCCC2 | ? | >57
Cc1cc2c(nc1C)CCCCN2C[C@H](C)O/N=C1/[C@H]2O[C@@H]2[C@@H](O)[C@H]2[C@H]1CCn1c(=O)n(-c3ccccc3)c(=O)n12 | -3%[1.6 µM] | ·
OC[C@H]1CCCN2CCCC[C@@H]12 | -3% | >57
